High-throughput results: PubChem, several laboratories
PrP 5UTR inh: inhibition of PrP 5' UTR reporter expression; 340,000 tested, 0.35% active; AID 488862; inhibition, % (test concentration not listed); cell-based PrP 5' UTR mRNA reporter, plate reader;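 active = every replicate at 50% or more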;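 note: 0 = median of the neutral control wells; tested in H4 reporter cells; numbers are from one replicate; inactives centre near -14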
Mtb hypoxia inh: inhibitors of hypoxia-regulated fluorescent reporter in Mycobacterium tuberculosis | M. tuberculosis hypoxia-regulated fluorescent reporter, fluorescence | AID 1159583 | 300,000 tested, 0.1% active | fluorescence inhibition, % (concentration not given with the values);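 active = 35 to 45% if threefold the growth effect, above 45% if 1.5-fold the growth effect; inactive = the rest, general growth blockers included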;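 note: wells of about 50 µL received 100 nL stock; 0% = vehicle wells and 100% = reference inhibitor wells; whole bacteria with a GFP reporter of the hypoxia response; strong numbers were not always called active; many hits fall short of the cut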
Sa ugtP lethal: compounds lethal to S. aureus RN4220 ugtP deletion mutant | OD600 growth, 16 h; some inactives read as strong as hits | growth inhibition, % (no concentration beside the values) | 330,000 tested, 0.54% active;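 active = z-score under -3 and OD600 up to 0.15 on both plates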;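 note: plate controls were untreated wells for no effect and antibiotic for full effect; wells of about 80 µL received 100 nL stock; the first replicate is given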
BJeLR viability: kills HRASV12-expressing BJeLR cells; inhibition, % (test concentration not listed); 300,000 tested, 0.17% active; BJeLR (HRASV12) viability, CellTiter-Glo ATP luminescence, 48 h; reference of the scale not given here;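 active = replicate mean above 50%; inconclusive = above 50% but judged a plate artefact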;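 note: 50 nL library stock added to about 25 µL; numbers are from one replicate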
RN4220 kill: S. aureus RN4220 growth inhibition; OD600, 16 h; 330,000 tested, 0.33% active; inhibition, % (no concentration beside the values);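 active = z-score of -3 or lower and OD600 up to 0.18 on both plates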;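 note: plate controls were untreated cells for no effect and reference antibiotic for full effect; stock transfer was 100 nL into about 80 µL; one replicate is shown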
Bead autofluor: compound fluorescence in toxin protease inhibitor counterscreen. 360,000 tested, 3.1% active. fluorescence intensity (concentration not given with the values). compound autofluorescence counterscreen, microsphere flow cytometry; active compounds read high;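 active = at least 3 SD above the mean of all compounds, about 16000 in these data; inconclusive = too few beads counted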;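 note: 100 nL of 1 mM stock went into each well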
Mtb hypoxia inh growth: second read-out of Mtb hypoxia inh, no call of its own (marks repeat the call); growth inhibition, %; measured here: M. tuberculosis growth (absorbance);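 0% = vehicle and 100% = reference antibiotic; read after six days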
An asterisk follows results filed as active; ? = inconclusive; nt = not tested or not shown.

SMILES	PrP 5UTR inh	Mtb hypoxia inh	Mtb hypoxia inh growth	Sa ugtP lethal	BJeLR viability	RN4220 kill	Bead autofluor
Cc1ccc(N=C2C(=S)N(c3ccc(C)cc3)C(=N)N2N=Cc2ccc(Cl)cc2)cc1	nt	-3	10	8	nt	0.7	nt
CC1(C)C2CCC1(CS(=O)(=O)N1CCC(C(=O)O)CC1)C(=O)C2 (stereo not given)	-5	13	-3	6	-2	6.6	4505
Cc1nc2scc(C)n2c(=O)c1S(=O)(=O)Nc1ccc(OC(F)(F)F)cc1	-8	1	0	13	-6	3.1	5489
Cn1c(=O)c2c(ncn2CC(=O)Nc2nnc(Cc3ccccc3)s2)n(C)c1=O	-12	nt	nt	6	6	4.2	4333
COc1ccc2nc(NC(=O)C3CSC4(C)CCC(=O)N34)sc2c1 (stereo not given)	-10	6	0	3	2	1.7	?
COc1ccc(OC)c(CCNC(=O)CS(=O)(=O)Cc2nc(-c3ccccc3C)oc2C)c1	-20	-9	3	-20	-6	-3.8	?
CCOC(=O)c1nnsc1C(OC)Oc1ccccc1 (stereo not given)	-7	8	2	3	nt	3.1	3010
O=C(Nc1nnc(-c2ccco2)o1)c1cccc(Cl)c1	-10	-10	4	-3	3	4.0	4185
O=C(CCCOc1ccc(Cl)cc1Cl)Nc1ccccn1	-48	-10	-3	-5	6	2.4	2553
CNCc1c(OCc2ccccc2F)ccc2ccccc12	2	-2	4	0	-19	-1.4	4483

The closing 4 entries of the part above lead into the next.
SMILES	PrP 5UTR inh	Mtb hypoxia inh	Mtb hypoxia inh growth	Sa ugtP lethal	BJeLR viability	RN4220 kill	Bead autofluor
CCOC(=O)c1nnsc1C(OC)Oc1ccccc1 (stereo not given)	-7	8	2	3	nt	3.1	3010
O=C(Nc1nnc(-c2ccco2)o1)c1cccc(Cl)c1	-10	-10	4	-3	3	4.0	4185
O=C(CCCOc1ccc(Cl)cc1Cl)Nc1ccccn1	-48	-10	-3	-5	6	2.4	2553
CNCc1c(OCc2ccccc2F)ccc2ccccc12	2	-2	4	0	-19	-1.4	4483
CCOc1ccc(CCNC(=O)Nc2ccccc2)cc1OCC	-20	2	-7	0	-12	-1.9	3504
N#Cc1nc(-c2ccccc2Cl)oc1N1CCN(C(=O)c2ccco2)CC1	-15	8	-3	8	3	7.3	4873
COc1ccccc1-n1c(SCC(=O)N2CCCC2)nc2cccnc21	-4	nt	nt	1	-3	-2.3	4765
Cc1c(Cc2ccccc2)sc(NC(=O)Cc2ccccc2)c1C(N)=O	-9	nt	nt	-4	-7	1.6	4052
NS(=O)(=O)c1nc[nH]c1[N+](=O)[O-]	-17	6	3	7	nt	6.4	3153
O=C(N/C(=C/c1ccccc1Cl)C(=O)N1CCCCC1)c1ccco1	-8	7	5	9	1	7.3	4302
COc1cccc(/C=C/C(=O)Nc2ccc3nc4n(c(=O)c3c2)CCCC4)c1OC	7	1	11	0	2	-2.3	3354
Cc1nnc(N/N=C/c2ccc(O)c([N+](=O)[O-])c2)[nH]c1=O	1	nt	nt	nt	-11	nt	2509
CCOC(=O)c1sc(NC(=O)CSc2nc(-c3ccco3)cc(C(F)(F)F)n2)c(C#N)c1C	-23	0	-1	-10	-1	-1.2	7734
CCN1CCN(c2oc(-c3ccccc3)nc2S(=O)(=O)c2ccc(C)cc2)CC1	10	-2	5	11	nt	5.4	4778
FC(F)(F)c1nnc(-c2ccccc2)nc1Sc1ccccc1	-20	nt	nt	6	-6	9.0	4440
O=C(c1cc(COc2cccc3cnccc23)on1)N1CCC(c2ccccc2Cl)C1 (stereo not given)	-9	9	3	8	6	13	5999
COc1ccc(CNc2nc3nc(-c4ccccc4)cc(=O)n3[nH]2)cc1OC	-92	nt	nt	2	-1	0.4	5463
CCOC(=O)CN=C/C(C(=O)Nc1nccs1)=C(/C)O	-11	12	7	1	-15	5.6	4961
O=C(O)c1ccc(Cl)c(S(=O)(=O)Nc2cccc(C(=O)Nc3cccc(C(F)(F)F)c3)c2)c1	2	5	1	25	4	7.3	6712
CCS(=O)(=O)Nc1ccc2c(c1)N(C(C)=O)c1ccccc1CC2	-5	nt	nt	-11	-2	-4.9	2490
COc1ccc(NC(=O)CN(c2ccc(C)cc2)S(C)(=O)=O)c(OC)c1	-24	5	9	6	5	3.0	2386
CC(=O)Nc1c(C(=O)N2CCN(c3ccccn3)CC2)cnn1-c1ccc(C)cc1	-18	9	9	9	-5	5.7	2594
COc1cccc(/C=N\NC(=O)c2sc(N)nc2C)c1OC	-6	nt	nt	nt	0	nt	4128
CCCN(CC1CC1)c1nc(C)nc(Nc2c(Cl)cc(Cl)cc2Cl)c1Cl	-1	7	1	-10	-2	-11	6284
CC(C)[C@H](CO)Nc1nc(Nc2ccc(Cl)c(C(=O)O)c2)c2ncn(C(C)C)c2n1	-6	nt	nt	nt	0	nt	4239
CCC(C)(c1nnnn1-c1c(C)cccc1C)N(N=O)c1ccccc1Cl (stereo not given)	-8	7	1	-2	nt	12	2857
O=C(O)c1cnc(-c2ccccc2)nc1Oc1ccccc1	-13	-2	12	2	-4	2.9	2057
NC(=O)C1CC2(CC(c3cccc(NC(=O)C4CCC(=O)N4)c3)=NO2)CN1C(=O)c1ccccc1 (stereo not given)	nt	7	2	3	nt	3.8	nt
NNC(=O)CS(=O)(=O)c1ccc(Cl)cc1	-11	9	3	1	-5	4.1	4581
O=C(CSc1nnc(-c2c[nH]c3ccccc23)o1)c1ccccc1	-28	4	6	-8	-2	7.4	7933
CC(C)(C)OC(=O)N[C@@H](Cc1ccccc1)C(=O)N1CCC(C(=O)N[C@@H](CCC(N)=O)C(=O)O)CC1	-7	2	16	1	-17	1.8	3682
CCOCCCNCc1ccc(OC)cc1	-31	7	3	12	7	3.9	7984
O=S(=O)(c1ccc(Cl)cc1)N1CCN(Cc2ccncc2)CC1	-4	1	0	2	11	2.2	3180
COc1ccc(OCc2cc(C(=O)N3CCN(C4CCCC4)CC3)no2)c(Cl)c1	-66	-1	6	5	-1	0.5	6160
CCCCn1c(N)c(N(CC(C)C)C(=O)CSCc2c(C)noc2C)c(=O)[nH]c1=O	-19	11	-2	8	-12	2.1	4688
COc1cc(NC(=O)CN2C(=O)NC3(CCOc4ccccc43)C2=O)cc(OC)c1 (stereo not given)	-20	6	-11	2	nt	-2.0	6560
CCNc1ccc(S(=O)(=O)N(C)C)cc1NCC(=O)Nc1ccccc1F	-24	0	3	-1	-4	8.5	2492
O=C1CC(N2CCC(C(=O)N3CCCCC3)CC2)C(=O)N1 (stereo not given)	-11	nt	nt	-1	-2	-1.4	4782
Cc1ccc(S(=O)(=O)N2CCN(C(=O)c3cc(S(=O)(=O)N(C)C)ccc3N3CCCC3)CC2)cc1	-16	1	-4	4	-3	4.2	5551
CN(Cc1ccccc1)C(=O)COC(=O)c1cc(=O)c2ccccc2o1	2	-5	2	2	nt	0.7	3983
CC(=O)c1csc(Nc2ccccc2Cl)n1	-97	12	9	-4	0	1.5	3619
Cc1ccc(CN2CCC(CO)(CC3CCCCO3)CC2)o1 (stereo not given)	-17	4	5	-1	2	3.8	4505
CC(=NNC(=O)c1ccn(C)n1)c1ccc(NC(=O)c2cccc(F)c2)cc1	nt	-2	1	13	nt	1.0	nt
COc1ccc(-c2nc(CS(=O)(=O)CC(=O)Nc3ccc(Cl)cc3)c(C)o2)cc1	-31	-2	0	-3	4	5.7	6042
O=C(c1cccc(F)c1)N(Cc1nc2ccccc2c(=O)[nH]1)C1CCCC1	-9	-3	-6	0	5	1.1	4424
CCOC(=O)C1CCN(C(=O)COC(=O)c2c(C)c(CC)nc3ccccc23)CC1	-12	13	10	10	nt	-0.2	8688
CCSc1nnc(NC(=O)C2CC=CCC2C(=O)O)s1 (stereo not given)	-5	-8	13	1	-4	12	3208
Cc1ccc2c(c1)N(C(=O)CCC(=O)N1CCC(C(N)=O)CC1)CCO2	-12	3	-1	-4	5	4.3	5562
O=C(O)C[C@H]1c2ccccc2S(=O)(=O)N1C1CCCC1	1	nt	nt	nt	13	nt	3052
O=C(Nc1cccc(F)c1)c1ccc(CSc2ccccc2)o1	-16	11	3	-4	1	0.6	2569
Cc1ccc(CSc2nnc(C)c(=O)[nH]2)cc1	-13	8	1	6	4	10	2165
O=C(c1cccc(S(=O)(=O)NCCOc2ccccc2)c1)N1CCN(c2ncccn2)CC1	nt	3	8	5	-14	-0.6	10858
Cc1oc(-c2ccccc2)nc1C(=O)OCC(=O)NC(=O)NCC(C)C	-15	-14	-2	-2	0	-2.0	8439
NC(=O)Cn1c(S(=O)(=O)Cc2ccccc2)nc2ccccc21	-11	3	-4	5	3	1.9	4736
(list continues)
SMILES	PrP 5UTR inh	Mtb hypoxia inh	Mtb hypoxia inh growth	Sa ugtP lethal	BJeLR viability	RN4220 kill	Bead autofluor
Cc1ncoc1C(=O)N1CCCC(CCC(=O)NCc2ccccc2F)C1 (stereo not given)	-9	8	5	5	-10	10	4024
O=[N+]([O-])c1ccc(Oc2ccc(F)cc2Br)c2ccncc12	5	nt	nt	18	3	38	2731
CC(C)OC(=O)CSc1nc2cccnc2n1-c1ccc(F)cc1	-13	16	20	12	2	3.2	4416
CCOC(=O)C1CCCN(c2ccc(NC(=O)c3snc4c(=O)[nH]c(C)nc34)cc2)C1 (stereo not given)	-10	7	7	0	7	-0.1	4037
O=C(NCC1CCCCC1)c1cc(S(=O)(=O)N2CCCCC2)ccc1Cl	-17	5	13	3	nt	-0.9	3685
Cc1cc(=O)[nH]c(N=C(N)Nc2ccc3c(c2)OCCO3)n1	nt	11	11	-3	nt	4.1	nt
C=CCn1cccc(C(=O)Nc2ccc(OC)c(OC)c2)c1=O	-20	-1	3	1	6	1.5	4309
O=C(NCCC1CCCCN1S(=O)(=O)c1cccs1)C(=O)Nc1ccccc1F (stereo not given)	-3	8	3	4	2	3.5	?
Cc1c(CC(=O)NCCCC(=O)O)c(=O)oc2cc3occ(-c4ccccc4)c3cc12	-11	2	0	16	-3	-4.9	2974
CC1CCN(C(=O)CN2c3cccc4cccc(c34)S2(=O)=O)CC1	-11	3	3	4	nt	3.8	8648
COc1ccc(N(CC(=O)NCCSCc2cccc(Cl)c2)S(C)(=O)=O)cc1Cl	-54	13	-4	3	-15	1.3	4460
CC(C)NC(=O)N1CCC(c2nc3ccccc3s2)CC1	-20	8	5	5	1	2.8	3942
COc1cc(NC(=O)COC(=O)/C=C/c2c(C)nn(-c3ccc(F)cc3)c2Cl)cc(OC)c1	-26	nt	nt	nt	3	nt	2663
COc1ccc(C(CC(=O)NCc2ccco2)c2ccc(F)cc2)cc1 (stereo not given)	-16	0	8	-7	-1	-0.4	9639
CCc1ccc(-c2cc(C)no2)cc1S(=O)(=O)N1CCOc2ccc(C)cc21	2	-4	-6	19	-13	-1.3	5027
COC(=O)c1ccccc1NC(=O)CSc1ccccn1	-13	19	8	3	5	1.3	4000
N#CCC(=O)N/N=C1\CCCCC1C1CCCCC1 (stereo not given)	-9	nt	nt	nt	-12	nt	2587
O=C(NCc1cccnc1)c1cccc(NS(=O)(=O)c2ccc(Br)cc2)c1	-1	-4	4	1	13	-1.0	?
COc1ccccc1C1=Nn2c(COc3ccccc3)nnc2SC1	nt	9	7	3	11	7.0	nt
CN(C)c1ccc(NC(=NS(=O)(=O)c2cccs2)c2ccccc2)cc1	nt	-6	3	0	nt	-0.5	nt
CC1(NC(=O)Nc2cc([N+](=O)[O-])ccc2O)CCS(=O)(=O)C1 (stereo not given)	-12	7	8	1	nt	3.5	3698
COC(=O)c1oc2ccc(Br)cc2c1NC(=O)c1ccccc1	-20	nt	nt	-5	-3	-5.2	2414
C=C(C)C(=O)Nc1cccc(C2=NOC3(C2)CC(C(N)=O)N(C(=O)CC#N)C3)c1 (stereo not given)	nt	5	2	-4	nt	4.2	nt
CCCNS(=O)(=O)c1ccc(Oc2ncc(C(F)(F)F)cc2Cl)cc1	-22	-5	2	-14	4	-4.4	8465
O=C(Nc1ccc(Nc2ccccc2)cc1)C(Cl)(Cl)Cl	-14	-1	2	-4	-18	-7.3	2693

Part of the list above in order of length of the SMILES, highest first:
SMILES	PrP 5UTR inh	Mtb hypoxia inh	Mtb hypoxia inh growth	Sa ugtP lethal	BJeLR viability	RN4220 kill	Bead autofluor
CCCNS(=O)(=O)c1ccc(Oc2ncc(C(F)(F)F)cc2Cl)cc1	-22	-5	2	-14	4	-4.4	8465
COC(=O)c1oc2ccc(Br)cc2c1NC(=O)c1ccccc1	-20	nt	nt	-5	-3	-5.2	2414
O=C(Nc1ccc(Nc2ccccc2)cc1)C(Cl)(Cl)Cl	-14	-1	2	-4	-18	-7.3	2693
